# TRPML1 ag: qHTS for Agonists of the Human Mucolipin Transient Receptor Potential 1 (TRPML1); TRPML1-expressing cells, Ca2+ dye fluorescence, FDSS; host cell line not named in the record; reference of the full effect not given here; hit rate 0.12% among 410,000; AID 624414, 2012; Mucolipin-1 (Homo sapiens), Q9GZU1; activation, % (test concentration not listed); in the data active = activation above about 50%; inconclusive = about 30% to 50%; inactive = below about 30%; also: 0% is about no effect; the text of the record puts the active cut at 80%
#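 Calcium fluorescence on an FDSS kinetic reader gave the read-out. Tet-induced TRPML1-DL cells were plated overnight, dye-loaded (Ca8 with quencher, 45-90 min, room temperature, dark), then read 110 s after compound addition, and again 110 s after 4uM final 54-4 (EC80).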
# CtBP-E1A blk: qHTS Assay for Inhibitors of the CtBP/E1A Interaction; CtBP / adenovirus E1A interaction (AlphaScreen); AlphaScreen GST-E1A/His-CtBP binding, 1536-well; hits give low values; control for the full effect not named in the record; activity change, % (test concentration not listed); hit rate 0.49% among 340,000; AID 651724, 2012; in the data active means activity change below about -65%; inconclusive means about -30% to -65%; inactive means above about -30%; also: % is scaled to controls: 0 for no effect and ±100 for the full control effect; compound concentration not given in the record
#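 GST-E1A and His-tagged CtBP (125 nM each as 5X stock) were preincubated with pin-transferred compound for 2 h at 37 °C in the dark, then glutathione donor and nickel acceptor beads were added for 1 h before AlphaScreen reading.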
# TRPV1 potentiator: HTS Assay for Compounds that Act as Potentiators of the Vanilloid Receptor 1; TRPV1-expressing cells, Fluo-8 calcium influx, capsaicin EC20 potentiation; host cell line not named in the record; control for the full effect not named in the record; potentiation, % at 8.33 µM; hit rate 0.02% among 320,000; active means potentiation above 80%; inconclusive means 30% to 80%; inactive means below 30%; also: 0% is about no effect
# Target sequence (Q8NER1 whole entry, looked up): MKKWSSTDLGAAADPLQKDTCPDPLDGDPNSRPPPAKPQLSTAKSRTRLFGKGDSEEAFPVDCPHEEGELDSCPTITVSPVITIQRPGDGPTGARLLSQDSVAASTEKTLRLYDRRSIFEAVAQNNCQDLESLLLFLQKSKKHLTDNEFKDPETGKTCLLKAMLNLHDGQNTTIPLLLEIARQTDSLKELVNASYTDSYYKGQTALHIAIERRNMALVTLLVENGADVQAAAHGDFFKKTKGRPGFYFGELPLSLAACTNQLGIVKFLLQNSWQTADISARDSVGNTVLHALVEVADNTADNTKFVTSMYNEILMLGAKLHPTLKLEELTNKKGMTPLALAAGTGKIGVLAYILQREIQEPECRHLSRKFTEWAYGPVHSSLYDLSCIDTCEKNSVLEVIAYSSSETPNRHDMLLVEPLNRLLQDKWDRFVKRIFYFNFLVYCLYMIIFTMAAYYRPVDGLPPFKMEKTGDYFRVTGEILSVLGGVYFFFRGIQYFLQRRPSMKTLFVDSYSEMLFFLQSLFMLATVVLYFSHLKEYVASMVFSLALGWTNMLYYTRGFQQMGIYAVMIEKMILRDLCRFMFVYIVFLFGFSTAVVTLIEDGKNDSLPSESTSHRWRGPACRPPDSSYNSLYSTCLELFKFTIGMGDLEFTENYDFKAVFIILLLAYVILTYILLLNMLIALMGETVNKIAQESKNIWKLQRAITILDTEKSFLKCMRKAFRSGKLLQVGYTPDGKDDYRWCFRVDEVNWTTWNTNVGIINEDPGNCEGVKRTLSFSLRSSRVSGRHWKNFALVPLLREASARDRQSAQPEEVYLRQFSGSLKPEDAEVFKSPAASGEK
#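 TRPV1-expressing cells were cultured overnight at 35.5C and loaded with Fluo-8 calcium dye for 40 to 90 min at room temperature. After a 10 s baseline, compound was added and calcium influx was read kinetically for 3 min (ex 480/em 520 nm).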
# TRPML1 inh: qHTS for Inhibitors of the Human Mucolipin Transient Receptor Potential 1 (TRPML1) | Mucolipin-1 (Homo sapiens), Q9GZU1 | TRPML1-inducible cells, Ca2+ dye fluorescence, FDSS; hits give low values; inhibition of EC80 agonist-evoked calcium signal | hit rate 0.02% among 390,000 | activity change, negative = inhibition, % (concentration not given with the values); in the data active means activity change below about -50%; inconclusive means about -30% to -50%; inactive means above about -30%;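 also: stimulus is agonist 54-4 at its EC80 concentration; % is scaled to controls: 0 for no effect and ±100 for the full control effect; compound concentration not given in the record; the text of the record puts the active cut at -80%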
#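 Calcium fluorescence in TRPML1-DL cells induced overnight with Tet: a 110 s read after compound pin addition, then a 110 s antagonist read after challenge with 54-4 at 4 uM final (EC80).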
# Six1-Eya2 blk: qHTS Assay for Inhibitors of the Six1/Eya2 Interaction | Homeobox protein SIX1 (Homo sapiens) + Protein phosphatase EYA2 (Homo sapiens), … | AlphaScreen GST-Six1/His-Eya2 binding, biochemical; hits give low values; control for the full effect not named in the record | activity change, % (test concentration not listed) | hit rate 0.56% among 360,000; in the data active = activity change below about -65%; inconclusive = about -30% to -65%; inactive = above about -30%; also: % is scaled to controls: 0 for no effect and ±100 for the full control effect; compound concentration not given in the record
#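 Compounds are tested against tagged Six1 and Eya2 proteins bridged by glutathione donor and nickel acceptor beads; after a one-hour incubation at 37 °C without light, AlphaScreen emission is recorded.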
# D2 PAM: Beta-Arrestin HTS for Positive Allosteric Modulators of the Human D2 Dopamine Receptor: Potentiators; hit rate 0.23% among 360,000; potentiation, % (concentration not given with the values); D(2) dopamine receptor (Homo sapiens), P14416; DiscoveRx D2 beta-arrestin cells, luminescence, 90 min; 100% = 57 uM dopamine signal; AID 624464, 2012; active = potentiation of 50% or more; inconclusive = 30% to 50%; inactive = 30% or less;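 also: compound concentration not given in the record; tested on top of an EC20 dose of dopamine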
#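 PathHunter D2 cells, attached overnight at 37 deg C, received compound in DMSO plus dopamine at EC20 (50 nM final) for 90 min at 37 deg C. Beta-arrestin recruitment was read as luminescence after 1 h with detection reagent at ambient temperature.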
# The depositor's hits bear a star; u = inconclusive; x = no result given.
SMILES,TRPML1 ag,CtBP-E1A blk,TRPV1 potentiator,TRPML1 inh,Six1-Eya2 blk,D2 PAM
COc1ccc(S(=O)(=O)NCCCCC(=O)O)cc1C(=O)O,-0.3,11,1,-14,2,-3
Cc1oc2cc(OCc3cnn(-c4ccccc4)c3)ccc2c(=O)c1Oc1ccccc1F,-0.1,-11,-3,21,5,0
O/N=C1\CCCc2c1nc(-c1ccccc1F)n2O,-0.5,0,-10,6,-2,-7
Cc1cc(C)c2c(n1)sc1c(=O)n(Cc3ccc(F)cc3)cnc12,2.4,x,-31,3,-1,5
O=S(NCc1ccco1)C12CC3CC(CC(C3)C1)C2 (stereo unspecified),0.4,2,-13,1,2,-4
CC1CC(C)CN(C(=O)C2CCCN(S(=O)(=O)c3cnc[nH]3)C2)C1 (stereo unspecified),0.3,1,5,-9,2,-7
c1ccc(Cc2noc(CN3CCCN(C4Cc5ccccc5C4)CC3)n2)cc1,-0.9,-8,4,-6,-10,-6
CCCSc1nnc(CN2CCOCC2)n1C,0.2,8,-1,-23,3,9
O=C(NCCN1CCOCC1)Nc1ccc(Cl)cc1,0.2,-2,4,0,4,-13
COC(=O)c1c(NC(=O)CN2CCC3(O)CCCCC3C2c2ccccc2OC)sc(C)c1C (stereo unspecified),0.0,3,8,17,-1,-6
CC(C)CN(C(=O)COC(=O)c1ccc(Cl)nc1)c1c(N)n(Cc2ccccc2)c(=O)[nH]c1=O,-0.1,3,2,24,-2,-6
CCN(CC)S(=O)(=O)c1cccc(C(=O)NNC(=O)c2ccc3[nH]c(=O)c(=O)[nH]c3c2)c1,0.3,x,10,-6,2,-4
Cc1cnc(C(=O)N2CCN(S(=O)(=O)c3ccc(F)c(F)c3F)CC2)cn1,-0.9,x,x,6,7,-7
CC1=C(C(=O)OCc2ccccc2)C(c2cccnc2)n2nnnc2N1 (stereo unspecified),1.2,5,3,2,3,8
O=C(c1ccc(F)cc1)C1CCN(C(=O)c2ccc(F)cc2)CC1,0.1,5,-17,64,5,1
CC(C)C(=O)Nc1ccc(NC(=S)NC(=O)c2cc3ccccc3o2)cc1,0.9,4,-3,8,3,-3
Cc1ccc(C(=O)C[n+]2ccccc2)cc1,-0.7,7,2,31,0,-2
O=C(c1c(F)cccc1F)N(Cc1ccccn1)C1CC1,-1.2,-2,-9,-8,6,-5
COc1ccc(NC(=O)CSc2nnnn2-c2ccc(OC)cc2)cc1,-0.1,-11,11,7,-2,-8
Cc1ccc(N(C(=O)c2snc(C(N)=O)c2N)C(C(=O)NCC2CCCO2)c2ccc(C)o2)c(C)c1 (stereo unspecified),0.7,-2,15,26,3,-3
CSCCC(NS(=O)(=O)c1ccccc1)C(=O)Nc1nccs1 (stereo unspecified),1.9,-3,-1,2,-1,-66
Cc1nnc(NC(=O)Nc2ccc(Cl)c(Cl)c2)s1,-0.9,1,-19,16,0,-2
CC(NS(=O)(=O)c1ccccc1Cl)C1CC2CCC1C2 (stereo unspecified),0.6,13,26,0,2,-5
CC(=O)N1CCN(C(=O)C2(NC(=O)Nc3cccc(F)c3)CCCCC2)CC1,0.7,7,26,12,2,0
O=C(O)CNS(=O)(=O)c1cc(Cl)c(Cl)cc1Cl,-0.5,3,-1,-11,12,0
SMILES,TRPML1 ag,CtBP-E1A blk,TRPV1 potentiator,TRPML1 inh,Six1-Eya2 blk,D2 PAM
CN(c1ccc(C(=O)Nc2ccccc2C(=O)N2CCCC2)cc1)S(C)(=O)=O,-0.4,3,-8,-20,9,-2
COc1ccc(C2CC(C(F)(F)F)n3nc(C(=O)O)c(Br)c3N2)cc1 (stereo unspecified),-0.6,1,-7,20,4,-2
CN(CCc1ccccc1)C(=O)CC1C(=O)NCCN1Cc1ccccn1 (stereo unspecified),-0.2,-3,x,-2,-25,-3
COc1ccccc1S(=O)(=O)Nc1cccc(-c2nnc3n2CCCCC3)c1,-0.8,-6,-1,-1,5,-3
CC(C)NC(=O)C1(C)Cc2c(-c3cccc(C(F)(F)F)c3)ccnc2O1 (stereo unspecified),-1.1,2,x,x,3,-6
COC(=O)c1cccc(NC(=O)CSc2nnc(-c3ccco3)o2)c1,1.0,1,10,-7,9,2
COc1ccc(C2CC(c3ccccc3)=NN2c2ccc(Cl)c(C(=O)O)c2)cc1 (stereo unspecified),0.0,22,9,-3,-1,2
CCC(C)[C@H](NC(=O)C1CCN(C(=O)[C@H](Cc2ccccc2)NC(=O)OC(C)(C)C)CC1)C(=O)O (stereo partly specified),1.6,x,18,-25,-2,-3
Cc1cc(C)cc(C(=O)N2CC(C)SC2=Nc2cccc(S(=O)(=O)N(C)C)c2)c1 (stereo unspecified),0.9,-20,-3,40,-1,-1
O=C(CNC(=O)c1ccc([N+](=O)[O-])cc1)N/N=C\c1ccc(OC(=O)c2ccccc2)cc1,0.9,7,10,5,3,27
O=C(COC(=O)C1=COCCO1)Nc1ccc(Cl)cn1,0.4,6,x,-14,4,-2
O=C(NCc1ccc2c(c1)OCO2)c1c(O)c2cccc3c2n(c1=O)CCC3,0.1,-1,2,1,12,10
S=C(c1cn(Cc2ccccc2)c2ccccc12)N1CCOCC1,-0.7,-20,-6,-2,-21,-6
O=C(N/N=C/C=C/c1ccccc1)c1ccncc1,-0.3,-12,-18,1,-11,-4
O=C(CN(c1ccccc1)S(=O)(=O)c1ccccc1)N1CCOCC1,1.1,-4,1,-6,-13,-4
O=C(NC(Cc1cn(Cc2ccccc2)cn1)C(=O)O)OCC1c2ccccc2-c2ccccc21 (stereo unspecified),-1.0,u,x,x,u,4
CCC(Oc1ccccc1)C(=O)Nc1ncc([N+](=O)[O-])s1 (stereo unspecified),2.3,x,7,-8,2,-22
CCC(C)N(C(=O)c1csnn1)C(C(=O)NC1CCCC1)c1c(F)cccc1Cl (stereo unspecified),3.6,4,-3,0,3,-6
c1ccc(-c2csc(-c3ccncc3)n2)cc1,2.0,5,-11,14,15,-6
Cc1cc(C)c(S(C)(=O)=O)c(S(=O)(=O)c2ccc(Cl)cc2)n1,-0.7,1,6,7,-1,-24
Cc1ccc(OC(C)C(=O)N(C)Cc2ccccc2)c([N+](=O)[O-])n1 (stereo unspecified),-0.8,9,-7,-4,2,9
CN(C1CCCCC1)S(=O)(=O)c1ccc(C(=O)O)cc1,-0.1,-2,x,-11,8,7
CC(=O)c1ccc(OCc2cc(C(=O)N3CCCCCCC3)no2)cc1,0.0,0,-27,22,12,-6
Cn1cnnc1SCC(=O)Nc1ncc(C(F)(F)F)cc1Cl,0.2,-4,-6,-18,5,-7
COc1ccc(CCC(=O)N2CCN(C3CCCCC3)CC2)cc1,3.2,1,-1,0,1,-1

# Full records from above. Values in the order: TRPML1 ag | CtBP-E1A blk | TRPV1 potentiator | TRPML1 inh | Six1-Eya2 blk | D2 PAM
# O=C(CN(c1ccccc1)S(=O)(=O)c1ccccc1)N1CCOCC1 across the screens: 1.1 | -4 | 1 | -6 | -13 | -4
# O=C(NC(Cc1cn(Cc2ccccc2)cn1)C(=O)O)OCC1c2ccccc2-c2ccccc21 (stereo unspecified) across the screens: -1.0 | u | x | x | u | 4
# COc1ccc(C2CC(c3ccccc3)=NN2c2ccc(Cl)c(C(=O)O)c2)cc1 (stereo unspecified) across the screens: 0.0 | 22 | 9 | -3 | -1 | 2
# S=C(c1cn(Cc2ccccc2)c2ccccc12)N1CCOCC1 across the screens: -0.7 | -20 | -6 | -2 | -21 | -6
# c1ccc(-c2csc(-c3ccncc3)n2)cc1 across the screens: 2.0 | 5 | -11 | 14 | 15 | -6

# The list continues:
SMILES,TRPML1 ag,CtBP-E1A blk,TRPV1 potentiator,TRPML1 inh,Six1-Eya2 blk,D2 PAM
COc1ccc(C2NC(=O)NC(C)=C2C(=O)Nc2cc(C)ccc2C)cc1OC (stereo unspecified),0.0,2,0,25,-1,13
O=C(COC(=O)c1ccccc1Br)NC(=O)NCc1ccccc1,2.8,-2,x,-12,-1,0
Nc1nc2c(c3c1c(=O)oc1ccccc13)CCCCC2,-0.9,3,-3,14,3,-11
Nc1c(C(=O)NCCN2CCOCC2)c2nc3ccccc3nc2n1CCc1ccccc1F,0.4,4,5,30,14,3
COc1ccc([C@H]2CC(=O)C=C(c3ccc(Br)c4ccccc34)C2)cc1,0.9,-2,x,12,-9,-7
O=C(CC(C(=O)O)c1ccccc1)Nc1cccc2ccccc12 (stereo unspecified),-0.2,7,-6,-20,3,-13
COCCCn1c(SCC(=O)NC2CCS(=O)(=O)C2)nnc1-c1ccc(Cl)cc1 (stereo unspecified),-0.5,x,-6,12,0,-1
COc1ccccc1-c1cc(C(=O)Nc2ccccc2SC)no1,-0.3,3,-3,-2,5,1
C=CCN(C(=O)CSc1nc2ccsc2c(=O)n1Cc1ccccn1)c1ccccc1,1.0,0,8,5,10,-5
CC(=O)NCCC(=O)N(Cc1ccccc1)c1nc2c(C)cccc2s1,1.3,-4,19,21,4,-14
CCOC(=O)[C@@H]1[C@H]2COc3ccc(Br)cc3[C@@H]2N2C(=O)N(c3ccc(Br)cc3)C(=O)[C@@]12C,0.0,-1,x,33,-4,-3
CSCCC(NS(=O)(=O)c1cccs1)C(=O)NCc1ccccc1 (stereo unspecified),-0.7,11,4,-11,6,-3
CCOC(=O)c1c(NC(=O)COC(=O)c2ccc(O)cc2)sc(C(=O)NC)c1C,1.9,0,x,-13,-7,-5
CCC(Sc1nc2ccccc2o1)C(=O)O (stereo unspecified),0.5,7,3,1,4,0
Cc1cccc(COC[C@H](Cc2ccccc2)N2CCN(C(=O)c3cc(Cl)cc(Cl)c3)CCC2=O)c1,2.8,u,x,x,-1,x
Cc1cc(NC(=O)c2ccc(Cl)cc2)cc(C)c1OCC(=O)N1CCOCC1,0.5,-2,-42,9,-4,-1
Cn1nccc1-c1ccc(C(=O)NCc2ccco2)c2occc12,-0.4,-21,x,x,-19,-3
O=C(COc1cccnc1[N+](=O)[O-])Nc1ccc(Cl)cc1F,-0.4,1,x,10,2,-4
COc1ccccc1-n1cnc2cc(C(=O)NCCCN3CCOCC3)ccc21,-0.4,5,3,8,3,-11
CCOC(=O)c1[nH]c2ccccc2c1NC(=O)c1ccc(S(=O)(=O)N2CCCC2)cc1,-0.6,-2,-6,-12,-1,-6
Cc1ccc(OCc2cc(C(=O)N(C)Cc3cnc4ccccn34)no2)cc1C,2.8,-8,-10,-22,-7,-8
Cc1ccccc1-c1nc(CS(=O)(=O)CC(=O)NCc2ccc(F)cc2)c(C)o1,3.1,-2,11,14,0,-9
COC(=O)CCC(=O)OC1(C)C(=O)C=C2C=C(C3CC3)N(CC3CC3)C=C2C1=O (stereo unspecified),0.2,-1,-10,27,2,18
COc1cc(OC)c(C(=O)C=Cc2ccc(OC)c(OC)c2)c(OC)c1,4.0,-12,x,-4,-8,-11

# Bioassay records as filed in PubChem.
